Screens as filed in PubChem BioAssay.
FGF22 binding – shifts melting point of recombinant human FGF22; Q9HCT0; recombinant FGF22 thermal shift, SYPRO orange fluorescence; percent of sucrose octasulfate shift, DMSO zero; calls only at 9.99 µM; 340,000 tested, 1.5% active; AID 651658;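 active = melting point raised past a set limit in the mean and every replicate; three in four hits are not shown here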
Target sequence (Q9HCT0 whole entry, looked up): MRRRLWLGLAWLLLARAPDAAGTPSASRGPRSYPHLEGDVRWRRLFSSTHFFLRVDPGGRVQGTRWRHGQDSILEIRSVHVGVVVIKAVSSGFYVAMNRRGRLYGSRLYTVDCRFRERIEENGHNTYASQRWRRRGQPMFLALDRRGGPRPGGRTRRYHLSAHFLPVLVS
Calls only. Not all compounds are listed (hit frequency here may not be typical).

For C[C@H]1CN([C@@H](C)CO)C(=O)Cc2cc(NC(=O)Nc3ccccc3)ccc2O[C@H]1CN(C)S(C)(=O)=O the results were FGF22 binding inactive.
C[C@@H]1CN([C@H](C)CO)S(=O)(=O)c2ccc(C#Cc3cccc(F)c3)cc2O[C@H]1CN(C)S(=O)(=O)c1cn(C)cn1 was read as FGF22 binding inactive.
For CC(C)C[C@H](NC(=O)c1ccco1)C(=O)N1CCC[C@H]1C(=O)NCc1ccccc1 the results were FGF22 binding inactive.
Screening CCCNC(=O)Nc1ccc2c(c1)C(=O)N(C)C[C@@H](OC)[C@@H](C)CN(C(=O)C1CCCCC1)[C@@H](C)CO2 returned FGF22 binding inactive.
Screening CC(C)NC(=O)OC[C@@H]1CSCCS(=O)(=O)N1 returned FGF22 binding inactive.
For Cc1noc(C)c1NC(=O)N(C)C[C@H]1Oc2ccc(NS(C)(=O)=O)cc2CC(=O)N([C@H](C)CO)C[C@H]1C the results were FGF22 binding inactive.
`CCC(=O)Nc1ccc2c(c1)C(=O)N(C)[C@H]1CC[C@H](CC(=O)O)O[C@@H]1CO2` gave FGF22 binding inactive.
Screening COC(=O)[C@]12C[C@H](CC(=O)NCc3cccs3)C(=O)N(Cc3ccccc3)C1=C[C@H](C(C)C)O[C@@H]2C1CC1 returned FGF22 binding inactive.
`COc1ccccc1C#Cc1ccc2c(c1)[C@H]1[C@H](CCN1S(=O)(=O)c1cccc(C)c1)[C@@H](CO)N2` gave FGF22 binding inactive.
For COc1ccc(NC(=O)Nc2ccc3c(c2)[C@H]2C[C@@H](CC(=O)N4CCN(C)CC4)O[C@@H](CO)[C@H]2O3)cc1 the results were FGF22 binding inactive.
Screening COc1ccc(S(=O)(=O)Nc2ccc3c(c2)C(=O)N([C@@H](C)CO)C[C@H](C)[C@H](CN(C)Cc2ccncc2)OCCCC[C@H](C)O3)cc1 returned FGF22 binding inactive.
Screening O=C(CCN1CCCCC1)N[C@@H]1CC[C@@H](CCNS(=O)(=O)c2ccc(Cl)cc2)O[C@H]1CO returned FGF22 binding inactive.
Cc1ccc(S(=O)(=O)N(C)C[C@H]2Oc3ccc(NC(=O)CCCCCC(=O)Nc4ccccc4N)cc3CC(=O)N([C@H](C)CO)C[C@H]2C)cc1 was read as FGF22 binding inactive.
CC(C)NC(=O)N1CC[C@@H]2[C@@H](CO)N(C)c3ccc(-c4ccc(F)cc4)cc3[C@@H]21 was read as FGF22 binding inactive.
For COc1ccc(-c2ccc3c(c2)[C@H]2[C@H](CCN2C(=O)C2CCCCC2)[C@H](CO)N3C)cc1 the results were FGF22 binding inactive.
`C[C@@H]1CCCCO[C@H](CN(C)S(=O)(=O)c2cccs2)[C@@H](C)CN([C@@H](C)CO)C(=O)c2cc(NS(=O)(=O)c3cccs3)ccc2O1` gave FGF22 binding inactive.
COc1ccc(NC(=O)N(C)C[C@@H]2Oc3c(NS(=O)(=O)c4ccc(OC)cc4)cccc3C(=O)N([C@@H](C)CO)C[C@@H]2C)cc1 was read as FGF22 binding inactive.
`CN1CCN(C(=O)C[C@@H]2CC[C@@H]3[C@@H](COc4ccc(NC(=O)C5CCOCC5)cc4C(=O)N3C)O2)CC1` gave FGF22 binding inactive.
For O=S(=O)(c1ccc(F)cc1)N1CCCCN2[C@H](CO)[C@H](c3ccc(-c4ccccc4)cc3)[C@@H]2C1 the results were FGF22 binding inactive.
`COc1cccc(-c2ccc([C@H]3[C@H](CO)N4CCCCN(C(=O)NC(C)C)C[C@@H]34)cc2)c1` gave FGF22 binding inactive.
C[C@H]1CN([C@@H](C)CO)C(=O)c2cc(-c3ccccc3F)cnc2O[C@@H]1CN(C)C(=O)c1ccccn1 was read as FGF22 binding inactive.
`Cc1ccc(S(=O)(=O)N(C)C[C@H]2Oc3c(NC(=O)NC(C)C)cccc3C(=O)N([C@@H](C)CO)C[C@H]2C)cc1` gave FGF22 binding inactive.
CN1[C@@H]2c3ccc(-c4ccc(F)cc4)c(=O)n3C[C@@H]2[C@@H](CO)[C@@H]1C(=O)NCc1ccccn1 was read as FGF22 binding inactive.
`C[C@@H]1CN([C@@H](C)CO)C(=O)c2cc(N(C)C)ccc2O[C@@H]1CN(C)C(=O)Nc1ccccc1` gave FGF22 binding inactive.
CNC(=O)C[C@@H]1CC[C@H]2[C@@H](COc3ccc(NC(=O)c4cscn4)cc3C(=O)N2C)O1 was read as FGF22 binding inactive.
For O=S(=O)(N[C@H]1CC[C@@H](CCn2cc(-c3cccnc3)nn2)O[C@H]1CO)c1ccccc1 the results were FGF22 binding inactive.
`CCCNC(=O)N(C)C[C@H]1Oc2ncc(C#Cc3ccncc3)cc2C(=O)N([C@H](C)CO)C[C@@H]1C` gave FGF22 binding inactive.
`CCC(=O)N1CC2(CN[C@@H](CO)c3c2c2ccc(OC)cc2n3C)C1` gave FGF22 binding inactive.
For C[C@@H]1CCCCO[C@H](CN(C)C(=O)NC2CCCCC2)[C@H](C)CN([C@@H](C)CO)C(=O)c2cc(NC(=O)C3CCCCC3)ccc2O1 the results were FGF22 binding inactive.
C[C@@H]1CN([C@H](C)CO)S(=O)(=O)c2ccc(/C=C/c3ccccc3)cc2O[C@@H]1CN(C)C(=O)Nc1cc(F)ccc1F was read as FGF22 binding inactive.
C[C@@H]1CN([C@H](C)CO)C(=O)Cc2cc(NC(=O)NC3CCCCC3)ccc2O[C@H]1CN(C)S(=O)(=O)c1ccc(F)cc1 was read as FGF22 binding inactive.
For O=C(CCN1CCCCC1)NCC[C@@H]1CC[C@H](NC(=O)C2CCC2)[C@H](CO)O1 the results were FGF22 binding inactive.
For CC(C)NC(=O)N1[C@@H](C#N)[C@H](c2ccc(C#CC3CCCCC3)cc2)[C@@H]1CO the results were FGF22 binding inactive.
`CC(C)c1[nH]nc2c1C(c1ccc(F)cc1)NC2=O` (stereo not drawn) gave FGF22 binding inactive.
Cc1ccc(S(=O)(=O)Nc2ccc3c(c2)C(=O)N([C@H](C)CO)C[C@H](C)[C@@H](CN(C)C(=O)CCCN(C)C)OCCCC[C@H](C)O3)cc1 was read as FGF22 binding inactive.
O=C(Nc1ccccc1F)N[C@H]1CC[C@@H](CCNS(=O)(=O)c2ccc(F)cc2)O[C@H]1CO was read as FGF22 binding inactive.
`COC(=O)C[C@H]1CC[C@H]2[C@@H](COc3ccc(NC(=O)c4ccc(OC)cc4)cc3C(=O)N2C)O1` gave FGF22 binding inactive.
`CC(=O)N(C)C[C@H]1Oc2cc(-c3cncnc3)ccc2S(=O)(=O)N([C@@H](C)CO)C[C@H]1C` gave FGF22 binding inactive.
CO[C@@H]1CN(C)C(=O)c2ccc(NC(=O)C3CC3)cc2OC[C@@H](C)N(C(=O)NC(C)C)C[C@H]1C was read as FGF22 binding inactive.
`O=C(C[C@H]1CC[C@@H](NC(=O)c2cccnc2)[C@@H](CO)O1)NCCN1CCCCC1` gave FGF22 binding inactive.

Nothing new here: 3 of the compounds above.
`Cc1ccc(S(=O)(=O)N(C)C[C@H]2Oc3c(NC(=O)NC(C)C)cccc3C(=O)N([C@@H](C)CO)C[C@H]2C)cc1` gave FGF22 binding inactive.
CN1[C@@H]2c3ccc(-c4ccc(F)cc4)c(=O)n3C[C@@H]2[C@@H](CO)[C@@H]1C(=O)NCc1ccccn1 was read as FGF22 binding inactive.
`C[C@@H]1CN([C@@H](C)CO)C(=O)c2cc(N(C)C)ccc2O[C@@H]1CN(C)C(=O)Nc1ccccc1` gave FGF22 binding inactive.

Retrieved one by one from the list above (6):
`CC(C)c1[nH]nc2c1C(c1ccc(F)cc1)NC2=O` (stereo not drawn) gave FGF22 binding inactive.
Cc1ccc(S(=O)(=O)Nc2ccc3c(c2)C(=O)N([C@H](C)CO)C[C@H](C)[C@@H](CN(C)C(=O)CCCN(C)C)OCCCC[C@H](C)O3)cc1 was read as FGF22 binding inactive.
O=C(Nc1ccccc1F)N[C@H]1CC[C@@H](CCNS(=O)(=O)c2ccc(F)cc2)O[C@H]1CO was read as FGF22 binding inactive.
`COC(=O)C[C@H]1CC[C@H]2[C@@H](COc3ccc(NC(=O)c4ccc(OC)cc4)cc3C(=O)N2C)O1` gave FGF22 binding inactive.
`CCC(=O)N1CC2(CN[C@@H](CO)c3c2c2ccc(OC)cc2n3C)C1` gave FGF22 binding inactive.
`CCCNC(=O)N(C)C[C@H]1Oc2ncc(C#Cc3ccncc3)cc2C(=O)N([C@H](C)CO)C[C@@H]1C` gave FGF22 binding inactive.

Other entries follow:
`COc1ccc(S(=O)(=O)N[C@H]2CC[C@H](CCn3cc(-c4ccccc4F)nn3)O[C@@H]2CO)cc1` gave FGF22 binding inactive.
`COc1ccc(NC(=O)N(C)C[C@@H]2Oc3ccc(NC(=O)CCC(F)(F)F)cc3C(=O)N([C@H](C)CO)C[C@H]2C)cc1` gave FGF22 binding inactive.
For C[C@H]1CCCCO[C@@H](CN(C)C(=O)Nc2ccccc2)[C@@H](C)CN([C@@H](C)CO)C(=O)c2cc(NC(=O)Nc3ccccc3)ccc2O1 the results were FGF22 binding inactive.
For CN1C[C@@H]2[C@H](c3ccccc31)[C@@H](CO)N2C(=O)C1CC1 the results were FGF22 binding inactive.
`CO[C@@H]1CN(C)C(=O)c2ccc(NC(C)=O)cc2OC[C@H](C)N(Cc2ccc(F)cc2)C[C@@H]1C` gave FGF22 binding inactive.
For C[C@H](CO)N1C[C@H](C)[C@@H](CN(C)Cc2cccc(F)c2)Oc2ncc(C#CCN(C)C)cc2C1=O the results were FGF22 binding inactive.
C[C@H]1CN([C@@H](C)CO)C(=O)c2cc(N(C)C)ccc2O[C@@H]1CN(C)C(=O)Nc1cccc2ccccc12 was read as FGF22 binding inactive.
Cc1ccc(S(=O)(=O)N[C@H]2C=C[C@@H](CC(=O)NCc3ccccc3F)O[C@@H]2CO)cc1 was read as FGF22 binding inactive.
`CCNC(=O)C[C@H]1C=C[C@H](NC(=O)C2CCC2)[C@H](CO)O1` gave FGF22 binding inactive.
For CCCC(=O)Nc1ccc2c(c1)OC[C@H](C)N(C(=O)c1cnccn1)C[C@H](C)[C@H](OC)CN(C)C2=O the results were FGF22 binding inactive.
`C[C@@H]1CN([C@@H](C)CO)C(=O)c2cc(NS(=O)(=O)c3ccc(F)cc3)ccc2O[C@@H](C)CCCCO[C@H]1CN(C)C(=O)CCCN(C)C` gave FGF22 binding inactive.
For COCC(=O)Nc1ccc2c(c1)C(=O)N(C)[C@H]1CC[C@@H](CC(=O)NCC3CC3)O[C@H]1CO2 the results were FGF22 binding inactive.
For C[C@@H]1CCCCO[C@@H](CN(C)C(=O)c2ccncc2)[C@@H](C)CN([C@@H](C)CO)C(=O)c2cc(NS(=O)(=O)c3ccccc3)ccc2O1 the results were FGF22 binding inactive.
`CC(=O)N1[C@@H](CO)[C@H](c2ccccc2)[C@@H]1CN(C(=O)NC(C)C)C1CCCC1` gave FGF22 binding inactive.
`CO[C@@H]1CN(C)C(=O)c2ccc(NS(=O)(=O)c3ccccc3F)cc2OC[C@@H](C)N(S(C)(=O)=O)C[C@H]1C` gave FGF22 binding inactive.
`CC(C)C#Cc1ccc2c(c1)O[C@H](CN(C)C(=O)CN(C)C)[C@@H](C)CN([C@H](C)CO)S2(=O)=O` gave FGF22 binding inactive.
Screening CC(=NNc1cc(C)c2ccccc2n1)c1ccccn1 returned FGF22 binding inactive.
Screening CO[C@H]1CN(C)C(=O)c2ccc(NC(=O)C3CCC3)cc2OC[C@@H](C)N(Cc2nccs2)C[C@@H]1C returned FGF22 binding inactive.
`CO[C@H](CN(C)C(=O)c1cnccn1)[C@H](C)CN([C@@H](C)CO)S(=O)(=O)c1ccc(F)cc1` gave FGF22 binding inactive.
Screening O=C(C[C@H]1C[C@@H]2c3cc(NC(=O)NC4CCCCC4)ccc3O[C@@H]2[C@@H](CO)O1)NCc1ccccn1 returned FGF22 binding inactive.
Screening C[C@@H]1CN([C@H](C)CO)C(=O)Cc2cc(NS(=O)(=O)c3cn(C)cn3)ccc2O[C@H]1CN(C)Cc1ccc(-c2ccccc2)cc1 returned FGF22 binding inactive.
For C[C@@H]1CN([C@H](C)CO)C(=O)c2cc(C#CCN(C)C)cnc2O[C@@H]1CN(C)C(=O)c1cccc(F)c1 the results were FGF22 binding inactive.
`C[C@H]1CN([C@@H](C)CO)C(=O)c2cc(NS(=O)(=O)c3cccs3)ccc2O[C@H]1CN(C)S(=O)(=O)c1cn(C)cn1` gave FGF22 binding inactive.
Screening COCC(=O)N1[C@H](CO)[C@H](c2ccc(-c3cccnc3)cc2)[C@@H]1C#N returned FGF22 binding inactive.
COc1ccc2c3c([nH]c2c1)[C@H](CO)NCC31CN(C(=O)C2CC2)C1 was read as FGF22 binding inactive.
For C[C@@H]1CN([C@@H](C)CO)C(=O)c2cc(NS(=O)(=O)c3ccccc3)ccc2O[C@@H](C)CCCCO[C@H]1CN(C)C(=O)Nc1ccc(C(F)(F)F)cc1 the results were FGF22 binding inactive.
CCC(=O)N1[C@H](CO)[C@H](c2ccccc2)[C@@H]1CNC(=O)CN1CCOCC1 was read as FGF22 binding inactive.
Screening CO[C@@H]1CN(C)C(=O)c2cc(NC(=O)Nc3cc(F)ccc3F)ccc2OC[C@H](C)N(C(=O)c2cnccn2)C[C@H]1C returned FGF22 binding inactive.
`COc1ccc(S(=O)(=O)N(C)C[C@@H]2Oc3c(NC(=O)CCCCCC(=O)Nc4ccccc4N)cccc3C(=O)N([C@@H](C)CO)C[C@H]2C)cc1` gave FGF22 binding inactive.
Screening CN(C)CC(=O)Nc1ccc2c(c1)[C@H]1C[C@@H](CC(=O)NCc3cccc(F)c3)O[C@@H](CO)[C@H]1O2 returned FGF22 binding inactive.
`CCC(=O)NC[C@H]1[C@H](c2ccccc2)[C@@H](CO)N1C(=O)C1CC1` gave FGF22 binding inactive.
For O=C(C[C@@H]1CC[C@@H]2[C@H](COC[C@@H](O)CN2C(=O)c2ccccn2)O1)N1CCN(c2ccccc2)CC1 the results were FGF22 binding inactive.
Screening C[C@@H]1CN([C@@H](C)CO)S(=O)(=O)c2ccc(C#CCN(C)C)cc2O[C@H]1CN(C)C(=O)c1ccccc1F returned FGF22 binding inactive.
For Cc1ccc(S(=O)(=O)N(C)C[C@H]2Oc3ccc(NC(=O)Cc4ccccc4)cc3CC(=O)N([C@H](C)CO)C[C@@H]2C)cc1 the results were FGF22 binding inactive.
